GIV Gai3 FP – inhibitors of GIV peptide binding to Galpha-i3, primary screen, biochemical, fluorescence polarization, FITC-GIV GBA peptide, rat Galphai3; Guanine nucleotide-binding protein G(i) subunit alpha-3 (Rattus norvegicus), P08753; 90 min; active compounds read low; scaled: aluminum fluoride 0%, vehicle 100%; percent of control (FP), % (concentration not given with the values); 0.42% of 210,000 active; AID 1224905, 2016;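 active = replicate mean at 85% of control or lower, very high polarization wells dropped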;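 note: wells of about 15 µL received 100 nL stock; the first replicate is given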
Target sequence (P08753 whole entry, looked up): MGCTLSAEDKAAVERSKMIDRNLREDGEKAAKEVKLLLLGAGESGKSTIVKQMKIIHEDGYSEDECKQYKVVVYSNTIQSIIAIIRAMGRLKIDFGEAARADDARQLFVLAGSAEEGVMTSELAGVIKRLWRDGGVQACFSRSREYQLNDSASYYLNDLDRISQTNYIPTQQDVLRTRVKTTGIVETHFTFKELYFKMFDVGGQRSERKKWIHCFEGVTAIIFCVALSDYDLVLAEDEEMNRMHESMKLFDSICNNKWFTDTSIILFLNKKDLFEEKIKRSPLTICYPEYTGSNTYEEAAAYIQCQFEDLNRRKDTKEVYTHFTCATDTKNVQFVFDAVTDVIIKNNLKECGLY
The depositor's hits bear a star; & = joins results of further samples.

mol | GIV Gai3 FP
CCOC(=O)N1CCC2(CC1)N=C(c1ccccc1O)CC(c1cc(F)ccc1F)N2 (configuration not stated) | 106
Cc1ccc(C(=O)N2CCN(c3ncnc4c3nnn4-c3ccccc3)CC2)cc1 | 100
CCCC(=O)Nc1cccc(Oc2nc(C)c(Cl)c(C)c2C#N)c1 | 108
N#CC1(C#N)[C@H](c2ccc(Br)cc2)[C@@H](C(=O)c2ccccc2)N2c3ccc(Cl)cc3C=C[C@@H]21 | 107
CCc1nc2sc(C(C)C)nn2c1S(=O)(=O)N1CCOCC1 | 100
CN1CCN(C(=O)c2cccc(-c3nc(-c4ccc(F)cc4)no3)c2)CC1 | 101
CN1c2ccccc2C(C)(C)C12C=Nc1c(ccc3ccccc13)O2 (configuration not stated) | 117
Oc1oc(-c2ccc(Br)cc2)nc1C=Nc1ccc(I)cc1 | 107
Cc1cc(C)c(S(=O)(=O)Nc2ccc3c(c2)c2c(n3S(=O)(=O)c3c(C)cc(C)cc3C)CC(C)(C)CC2=O)c(C)c1 | 112
O=S(=O)(Nc1ccccc1-c1ccc2ccccc2n1)c1cccc(Cl)c1 | 102
CCN(CC)S(=O)(=O)c1ccc2c(c1)cc(C(=O)N1CCN(c3cccc(OC)c3)CC1)n2C | 99
CCCCC1(C)NC(=S)N(c2cccc(C)c2C)N1 (configuration not stated) | 115
CCOC(=O)c1ccc(N=c2ssc3c2-c2ccccc2NC3(C)C)cc1 | 119
CCOCCCNC(=O)N1c2ccccc2NC2=C(C(=O)CC(C)(C)C2)C1c1ccc(C)cc1 (configuration not stated) | 97
Cc1ccc(N2CCN(S(=O)(=O)c3cc(-c4nnc(C5CC5)o4)co3)CC2)cc1 | 100
CCOC(=O)CC1(NC(=O)N2CCc3cn(C)c4cccc(c34)C2)CCCCC1 | 93
Fc1ccc2nc3c(nc2c1)c1ccccc1n3Cc1cc(C(F)(F)F)cc(C(F)(F)F)c1 | 111
CCNc1ncnc2c1cnn2-c1cccc(Cl)c1 | 94
CCOC(=O)c1c(NC(=O)CSc2nnc(C)s2)sc2c1CCC(C)C2 (configuration not stated) | 104
CCOc1ccc(N/C(SCc2cccc([N+](=O)[O-])c2)=C(/C#N)C(=O)NCc2ccco2)cc1 | 106
COc1cccc(-c2oncc2CN2CCC3(CC2)OCCO3)c1 | 102
Cc1c(C(=O)NCCN(C)c2ccccc2F)sc2ncn(CC(=O)N3CCN(c4ccccn4)CC3)c(=O)c12 | 100
c1ccc(-c2cnc(-c3ccncc3)nn2)cc1 | 109
COc1ccc(NC(=O)CSc2ncccc2C(=O)N2CCC(Cc3ccccc3)CC2)cc1OC | 113
CN1CCN(S(=O)(=O)c2ccc3c(c2)Cc2cc(S(=O)(=O)N4CCN(C)CC4)ccc2-3)CC1 | 101
CCOC(=O)c1c(NC(=O)C(C)Sc2nnc(CNC(=O)Cc3ccc(OC)cc3)n2C)sc2c1CCCC2 (configuration not stated) | 112
Cc1nn(-c2nc3ccc(Br)cc3s2)c2c1C(c1cccnc1)CC(=O)N2 (configuration not stated) | 104
Cc1cc(C)cc(NC(=O)c2sc3nc(SCc4cccc(Cl)c4)n(CCc4ccccc4)c(=O)c3c2C)c1 | 118
COc1ccc(CCC(=O)N2CSC[C@@H]2C(=O)NCc2csc(C)n2)cc1 | 99
O=C(NCCCN1CCOCC1)NC1COc2ccccc2C1 (configuration not stated) | 109

Structural class, those above containing a thiophene ring, fused or not.
mol | GIV Gai3 FP
CCOC(=O)c1c(NC(=O)CSc2nnc(C)s2)sc2c1CCC(C)C2 (configuration not stated) | 104
Cc1c(C(=O)NCCN(C)c2ccccc2F)sc2ncn(CC(=O)N3CCN(c4ccccn4)CC3)c(=O)c12 | 100
CCOC(=O)c1c(NC(=O)C(C)Sc2nnc(CNC(=O)Cc3ccc(OC)cc3)n2C)sc2c1CCCC2 (configuration not stated) | 112
Cc1cc(C)cc(NC(=O)c2sc3nc(SCc4cccc(Cl)c4)n(CCc4ccccc4)c(=O)c3c2C)c1 | 118

Additional structures follow:
mol | GIV Gai3 FP
Cc1nc(-c2cc(S(=O)(=O)N3CCCc4ccccc43)c(C)s2)sc1C | 95
O=C1c2cc(S(=O)(=O)N(CCO)CCO)ccc2-c2ccc(S(=O)(=O)N(CCO)CCO)cc21 | 108
CC(C)(C)C1CCc2c(sc3c2C(=O)NC(c2ccc(O)cc2O)N3)C1 (configuration not stated) | 109
COCCOC(=O)C1=C(C)NC2=C(C(=O)CC(c3cccs3)C2)C1c1cc(OC)c(O)c([N+](=O)[O-])c1 (configuration not stated) | 99
O=S(=O)(NCCC1=CCCCC1)c1cccc2nsnc12 | 110
CCOc1ccc2c(c1)C(=C1SC(C(=O)OC)=C(C(=O)OC)S1)C(=S)C(C)(C)N2C(=O)c1ccc(-c2ccccc2)cc1 | 114
COc1cccc(N2CCN(C(=O)Cn3ccc4c(SCc5ccccc5)nccc43)CC2)c1 | 101
Cc1cccc(NC(=O)C2Oc3ccccc3NC2=O)c1 (configuration not stated) | 97
CCc1ccc(S(=O)(=O)c2cnc(N3CCN(c4ccccc4Cl)CC3)nc2N)cc1 | 96
Cc1noc(C)c1C1CCCN1C(=O)c1cc2nc(C3CC3)cc(C(F)(F)F)n2n1 (configuration not stated) | 97
Cc1nc(CNC(=O)[C@H]2CSCN2C(=O)Nc2cccc(Br)c2)cs1 | 100
COc1ccc(C(=O)NCc2nnc(SCC(=O)N3N=C(c4cccs4)CC3c3ccc(F)cc3)n2C)cc1 (configuration not stated) | 113
CCOC(=O)C1=CN(Cc2ccc(OC)cc2)C=C(C(=O)OCC)C1c1cccc(Br)c1 | 101
C=CCN(C)C(=O)c1cc2sc(Cl)cc2n1C | 103
CCOC(=O)c1sc(=S)n2c1[nH]c(=O)c1ccccc12 | 98
Cc1ccc(CCNC(=O)CCCCn2c(=O)[nH]c3ccccc3c2=O)cc1 | 105
Cc1csc(-c2cc(S(=O)(=O)NCCC3=CCCCC3)cn2CC(=O)N2CCCCC2)n1 | 103
COc1cccc(C2CC(c3cccs3)=NN2C(=O)CSc2cn(C)c3ccccc23)c1OC (configuration not stated) | 110
CCn1nc2c(S(=O)(=O)N3CCc4ccccc4C3)cccn2c1=O | 112
Fc1ccc(-c2noc(Cn3ccnc3)n2)cc1 | 103
Cc1nn2c(S(=O)(=O)NC(C)(C)C)c(C)nc2s1 | 101
CCc1c(C)c(C#N)c2nc3ccccc3n2c1N1CCN(Cc2ccccc2)CC1 | 115
COC(=O)c1ccc(NC(=O)Nc2c[nH]c(=O)[nH]c2=O)cc1 | 99
CC(C)c1ccc(S(=O)(=O)Nc2ccc3oc4c(c3c2)C(=O)CCC4)cc1 | 128
CCCN(CCC)c1nc(NC(C)(C)C)nc(N2CCOCC2)n1 | 114
N#CC1=C(NC(=O)Cc2ccccc2)c2ccccc2CC12CCCCC2 | 106
CC1=NN(c2nc(-c3cccc([N+](=O)[O-])c3)cs2)C(=O)/C1=C\c1ccc(N(C)C)cc1 | 109
COc1cccc(N2N=NC3C(=O)N(c4ccccc4)C(=O)C32)c1 (configuration not stated) | 103
O=C(CCc1nc(CSc2nnc(-c3ccncc3)o2)no1)Nc1ccccc1 | 104
CCC(=O)Nc1cccc(-c2noc(C3CCCN(C(=O)c4cc(OC)cc(OC)c4)C3)n2)c1 (configuration not stated) | 103
CCOC(=O)N1CCC(NC(=O)c2cc3nc(-c4ccc(OC)cc4)cc(C(F)(F)F)n3n2)CC1 | 117
COC(=O)c1c2c(c3ccccc3c1-c1ccccc1)OC(c1ccc(OC)cc1)(c1ccc(OC)cc1)C=C2 | 105
Cc1ccnc(N2CCCC(C(=O)N3CCN(c4ccccn4)CC3)C2)n1 (configuration not stated) | 97
CC(=O)C1=NN(c2ccc(Cl)cc2)C(c2cccs2)N1c1ccc(C)cc1 (configuration not stated) | 117
O=S(=O)(NCCc1n[nH]c(Cc2cccc(F)c2)n1)c1ccccc1Cl | 107
CCCCCCCCOc1ccc(C2Nc3cc(C)ccc3C(=O)CS2)cc1 (configuration not stated) | 106
CCc1onc(C)c1C1CCCN1C(=O)NC(C)CC (configuration not stated) | 95
CCOC(=O)C1CCCN(S(=O)(=O)c2cc(-c3nc(C)c(C)s3)sc2C)C1 (configuration not stated) | 94
CN1CCN(c2nc(NCc3ccccc3)c3ccccc3n2)CC1 | 101
COc1ccc(O)c(C2=Nc3ccccc3N=C(c3cccc(C)c3)C2)c1 | 109

Fetched by compound from above (4):
mol | GIV Gai3 FP
CCCCCCCCOc1ccc(C2Nc3cc(C)ccc3C(=O)CS2)cc1 (configuration not stated) | 106
CCOC(=O)C1CCCN(S(=O)(=O)c2cc(-c3nc(C)c(C)s3)sc2C)C1 (configuration not stated) | 94
CC(=O)C1=NN(c2ccc(Cl)cc2)C(c2cccs2)N1c1ccc(C)cc1 (configuration not stated) | 117
O=S(=O)(NCCc1n[nH]c(Cc2cccc(F)c2)n1)c1ccccc1Cl | 107

A draw from above in order of molecular weight, falling.
mol | GIV Gai3 FP
COC(=O)c1c2c(c3ccccc3c1-c1ccccc1)OC(c1ccc(OC)cc1)(c1ccc(OC)cc1)C=C2 | 105
CCOC(=O)N1CCC(NC(=O)c2cc3nc(-c4ccc(OC)cc4)cc(C(F)(F)F)n3n2)CC1 | 117
CCc1onc(C)c1C1CCCN1C(=O)NC(C)CC (configuration not stated) | 95

(listing goes on)
smiles,GIV Gai3 FP
O=C1CC(n2nc(-c3ccc(Cl)cc3)n(Cc3ccccc3)c2=S)C2COC1O2 (configuration not stated),114
CCCS(=O)(=O)c1c(S(=O)(=O)CCC)c2ccccn2c1C(=O)N/N=C/c1cccc([N+](=O)[O-])c1,99
O=C(CCc1nc(CSc2nnc(-c3ccccc3)o2)no1)Nc1nccs1,104
CC(C)CNC(=O)C(=O)Nc1cccc(C(F)(F)F)c1,127
O=C(CCC1=NS(=O)(=O)c2ccccc2N1)Nc1ccc(Cl)cc1,102
O=C(Nc1ccc(Cl)cc1)N1CCN(C(=O)c2nsc3ccccc23)CC1,102
COc1ccc2c(c1OC)C(=O)OC2,108
COc1ccc(Cn2c(=O)c3c(n4cnnc24)-c2ccccc2CC32CCCCC2)cc1,103
Cn1c(SCC(=O)NCc2ccc(Cl)cc2)nc2cc(-c3ccccc3)sc2c1=O,109
CC1CCCN(C(=O)c2snc3c(=O)n(C)c(=O)[nH]c23)C1 (configuration not stated),99
O=C(Nc1cc(F)ccc1F)C1CCN(S(=O)(=O)c2cccnc2)CC1,103
CCOC(=O)N1CCC(NC(=O)c2cc3nc(-c4ccc(C)cc4)cc(C(F)(F)F)n3n2)CC1,114
O=C(NCCc1csc(-c2ccccc2)n1)[C@H]1CCCN1C(=O)c1cccc(Cl)c1,99
O=c1oc2c(CN3CCCCCC3)c(O)ccc2c2c1CCC2,114
CN1CCN(c2ncnc3c2cnn3CC(=O)NCCN2CCCCC2)CC1,109
CN1CCCN(C(=O)C2CC(=O)N(c3ccc4c(c3)CCN4C(=O)C3CC3)C2)CC1 (configuration not stated),102
Cn1c(=O)c2c(nc3n2CC(c2ccc(Br)cc2)=NN3Cc2ccccc2)n(C)c1=O,103
CC(C)(C)[Si](C)(C)OCC1OC(n2ccc(N)nc2=O)CC1O[Si](C)(C)C(C)(C)C (configuration not stated),108
Cc1cc2nc3[nH]c4ccccc4c3nc2cc1C,109
Cc1c(C(=O)Nc2ccc(Cl)cc2)sc2ncnc(N3CCOCC3)c12,101
Cc1ccc(C(=O)Cn2c(=O)n3nc(-c4ccccc4)nc3c3ccccc32)c(C)c1,100
CCC(C)NC(=O)N1CCN(C(=O)c2nsc3ccccc23)CC1 (configuration not stated),103
COc1cccc2c1OC1(CCC(C)CC1)N1N=C(c3ccc(C)o3)CC21 (configuration not stated),123
Cc1cc(N2CCN(C(=O)C3CCC3)CC2)nc2nncn12,102
COC(=O)C1=CN(Cc2ccc(Cl)cc2)C=C(C(=O)OC)C1c1cc(OC)c(O)c([N+](=O)[O-])c1,103
CCNC(=O)c1cn2c3c(cccc3c1=O)CC2,105
Cc1ccc(C(=O)N/C(=C\c2ccccc2)C(=O)NCc2ccco2)cc1,110
COC(=O)Nc1ccc2c(c1)Nc1ccccc1CC2,110
O=C(CSc1nnc2sc3ccccc3n12)c1ccc2ccccc2c1,102
COc1cc(C2C3=C(CC(C)(C)CC3=O)OC3=C2C(=O)CC(C)(C)C3)c(Br)cc1O,113
CCOC(=O)c1[nH]c(C)c(CN(Cc2ccc(OC)cc2)S(=O)(=O)Cc2ccccc2)c1C,96
C=CCOc1ccc(C2C3=C(CC(C)(C)CC3=O)OC3=C2C(=O)CC(C)(C)C3)cc1,107
COc1cccc(C(=O)NC(c2ccccc2)c2cc(Cl)c3cccnc3c2O)c1 (configuration not stated),108
Cc1cc(N2CCCC2)n2nc(CN3CCN(CC(C)C)CC3)nc2n1,102
CCOc1ccccc1N/C(SCc1cc(F)ccc1F)=C(/C#N)C(=O)NCc1ccccc1,103
COc1ccc(-c2c(C#N)c(SCC(N)=O)nc(C)c2C(=O)Nc2ccccc2)cc1OC,123
Cc1ccc(-c2cc(N3CCN(C(=O)c4cc(C)cc(C)c4)CC3)ncn2)cc1,105
Cc1csc(-c2cc(S(=O)(=O)Nc3ccc(F)c(F)c3)cn2CC(=O)N2CCCC2)n1,101
O=c1cc(CSc2nc(NCc3ccc(Cl)cc3)c3ccccc3n2)nc2ccc(Cl)cn12,107&95
CCCc1cc(C2CCCN2Cc2ccc(Br)cc2)no1 (configuration not stated),102
O=C(NCc1c(-c2ccc(F)cc2)nc2n1CCS2)c1cccc(Br)c1,100
CCCNC(=O)C1CCCN(c2cc(=O)n(C)c(=O)n2CC)C1 (configuration not stated),109
COc1ccc(N2C(=O)NC(=O)/C(=C/c3ccc(N(C)C)c(Br)c3)C2=O)cc1,102
COc1cccc(CN2CCCC2c2c(C)noc2C)c1OC (configuration not stated),119
CN(C)c1ncncc1N1CCC(C(=O)NCCCN2CCCC2=O)CC1,104
CCOC(=O)C1=C(O)/C(=C/c2cccc([N+](=O)[O-])c2)SC1=Nc1ccc([N+](=O)[O-])cc1,104
O=C(O)CCNS(=O)(=O)c1cccc2nsnc12,115

Compound activity as filed in PubChem BioAssay.

These rows are one share of the data; rates above refer to the full screens.
